Rango dissoc inh = prevents RanGTP from dissociating the Rango-importin beta complex; AID 540253; Potency, µM (titrated, usually from 46.1 µM), for inactives: at the highest dose activity change, negative = inhibition; O95149+P62826; Biochemical FRET Rango-importin beta, RanGTP-induced dissociation; actives 0.071% (n = 340,000); active means falling FRET ratio curve, often poorly fitted, with flat reads before Ran was added; inconclusive means other falling curves, or compound fluorescence or quenching; inactive means flat or rising ratio curve;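 further: potency means the concentration at half of the fitted maximal effect; % of control where 0% means no effect; nearly all actives have a fitted effect of over 45% in size; -100% = wells without RanGTP and RCC1; the record marks most hits as doubtful in a second field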
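Compounds preincubate 5 min with complex of recombinant Rango and importin beta in PBS with 1 mM DTT. Ran (0.6 uM) loaded with 2 mM GTP plus 0.2 uM RCC1 starts dissociation; FRET is recorded 45 min later.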
GLA inh pH 4.5 = inhibitors of human alpha-galactosidase A at pH 4.5; 230,000 tested, under 10 active; P06280; activity change, negative = inhibition, % at 105 µM; AID 1467; purified enzyme, 4-MU-alpha-Gal fluorescence, pH 4.5; inconclusive = small, poorly fitted or top-dose-only inhibition, or a rising curve; inactive = flat fitted curve, though single readings scatter; no compound was filed as active;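 further: 0% = full activity with enzyme and -100% = basal without enzyme; dose as in the result columns while the protocol names 77 µM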
Target sequence (P06280 whole entry, looked up): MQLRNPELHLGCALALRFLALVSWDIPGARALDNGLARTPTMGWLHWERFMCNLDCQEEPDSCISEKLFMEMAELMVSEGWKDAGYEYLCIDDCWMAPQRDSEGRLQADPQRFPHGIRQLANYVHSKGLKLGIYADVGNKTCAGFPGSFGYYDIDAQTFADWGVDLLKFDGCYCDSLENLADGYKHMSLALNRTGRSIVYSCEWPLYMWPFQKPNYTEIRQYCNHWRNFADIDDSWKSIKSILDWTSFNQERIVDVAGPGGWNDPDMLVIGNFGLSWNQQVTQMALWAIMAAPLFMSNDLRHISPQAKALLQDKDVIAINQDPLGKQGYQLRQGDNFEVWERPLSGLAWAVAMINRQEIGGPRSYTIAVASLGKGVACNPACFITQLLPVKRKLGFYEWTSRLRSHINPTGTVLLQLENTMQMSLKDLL
miR-21 FLuc = miR-21 reporter, rising signal; 340,000 tested, under 10 active; HeLa miR-21 FLuc reporter, luciferase, 48 h; AID 2288; Potency, µM (series often up to 38.3 µM), inactives show top-dose reporter change, positive = more light; active = well fitted rising curve with a large enough effect; inconclusive = small, poorly fitted or top-dose-only effect; inactive = no such curve, though single readings can be large or run the other way;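 further: % of control where 0% means no effect; miR-21 action dims this reporter so a rising signal means less miR-21 action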
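Using DMEM plus 10% FBS, HeLa miR-21-FLuc cells are incubated with test compounds (final up to about 40uM) for 48 hours; firefly luciferase signal is then imaged following reagent-mediated lysis.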
Rango-impB inh = Rango-importin beta binding inhibition | Q14974 | Rango CFP/YFP FRET sensor + importin beta, 45 min | Potency, µM (top dose mostly 92.2 µM), for inactives: top-dose inhibition of complex formation | actives 0.031% (n = 340,000) | AID 540263; active = rising FRET ratio curve, often small or poorly fitted; inconclusive = mostly compound fluorescence or quenching in the first reads; inactive = flat curves in all reads;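 further: potency means the concentration at half of the fitted maximal effect; 0% = DMSO wells and 100% = buffer wells lacking importin beta; nearly all actives have a fitted effect of over 15% in size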
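Inhibition scored from the CFP 486 nm/YFP 530 nm FRET ratio 45 min after adding 0.125 microM importin beta to 50 nM Rango biosensor preincubated 5 min with compound (room temperature, PBS with DTT, Tween-20, BSA). No-importin wells as positive control.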
* marks the source's active call; other numbers are inactive results; ? = inconclusive; nt = not tested or not shown; & = joins results of further samples; [ ] = another dose, or the depositor's remark. An excerpt, so the mix of outcomes need not match the whole.

#	canonical_smiles	miR-21 FLuc	GLA inh pH 4.5	Rango-impB inh	Rango dissoc inh
1	COCC(=O)Nc1nc2n(n1)C(c1ccccc1)CC(c1ccc(OC)cc1)N2 (stereo not given)	-12%	4	?	?
2	COCCNC(=S)N1CCc2cc(OC)c(OC)cc2C1c1cccs1 (stereo not given)	7%	-11	-1.5%	0%
3	Cc1cccc2cc(C(c3nnnn3Cc3ccccc3)N3CCN(c4ccccc4)CC3)c(=O)[nH]c12 (stereo not given)	1%	-6	-5.9%	-8%
4	COc1ccc(N2CCN(C(=O)c3ccc(CNS(=O)(=O)c4cc(C)ccc4C)cc3)CC2)cc1	11%	nt	0.3%	2%
5	Cc1nn(C)cc1NC(=O)c1nn(C)cc1[N+](=O)[O-]	-3%	3	-1.4%	-14%
6	O=C(Cc1cccc(NC(=O)C2CCCN(C(=O)C3CCCCC3)C2)c1)Nc1ccc(C(=O)N2CCCCC2)cc1 (stereo not given)	nt	nt	0.1%	-2%
7	CCc1ccccc1N1CC(C(=O)N2Cc3ccccc3CC2C(N)=O)CC1=O (stereo not given)	nt	nt	-1.5%	13%
8	CCn1c(=O)c(CCC(=O)N2CCN(c3ccccn3)CC2)c(C)c2c(C)nn(-c3cccc(C)c3)c21	1%	nt	-0.6%	-3%
9	COc1ccc(-c2csc3nc[nH]c(=O)c23)cc1OC	-4%	nt	?	-5%
10	Cc1ccc(-n2nc3c(n2)/C(=N/O)CC/C3=N\O)cc1	-56%	-3	0.1%	7%
11	COc1cccc(C(c2nnnn2Cc2ccc(F)cc2)N2CCC(C(N)=O)CC2)c1OC (stereo not given)	-6%	4	0.0%	-7%
12	CCn1c2ccccc2c2cc(C3N=C(N)Nc4nc5ccccc5n43)ccc21 (stereo not given)	-5%	-14	-0.4%	0%
13	C=CCn1c(=O)c(C(=O)Nc2cc(C)ccn2)c(O)c2ccccc21	-11%	nt	-0.3%	16%
14	O=C(c1ccc2[nH]c(=O)c(=O)[nH]c2c1)N1CCN(c2ccccc2)CC1	0%	nt	-0.1%	-10%
15	Cc1ccc(C)c(NC(=S)NNC(=O)c2csc(C)c2C)c1	-51%	-3	-0.2%	-2%
16	CCc1cccc(NC(=O)c2ccc(CNc3c(N4CCCC4)c(=O)c3=O)cc2)c1	-10%	7	0.7%	1%
17	COc1ccc2nc3oc(C(=O)NCc4cccs4)cc3cc2c1	-23%	8	-0.4%	7%
18	COc1ccc(Cn2c(C)nc3ccc([N+](=O)[O-])cc3c2=O)cc1	0%	nt	1.0%	-7%
19	Cc1ccc(OCCOc2ccc(Cl)cc2Cl)c([N+](=O)[O-])n1	-45%	-6	-2.4%	-7%
20	Cn1c(=O)c(=O)n(C)c2cc(S(=O)(=O)N3CCC(Cc4ccccc4)CC3)ccc21	-5%	4	7.6%	2%
21	COc1ccc(CCN2C(=O)C(Oc3ccccc3C)C2c2ccc3c(c2)OCO3)cc1 (stereo not given)	0%	-10	-0.2%	-13%
22	CC(C)C(=O)N1CCN(c2ccccc2NC(=S)NC(=O)c2ccco2)CC1	nt	nt	1.7%	2%
23	c1ccc(NCc2ccncc2)cc1	-2%	nt	0.9%	-11%
24	COc1ccc(F)c(CN2CCN(CCc3ccccc3)C(CCO)C2)c1 (stereo not given)	-1%	nt	0.8%	-15%
25	CC1(C)OC(=O)N(CCC(=O)Nc2cccc(F)c2)C1(C)O (stereo not given)	-1%	-7[21.1 µM]	2.0%	2%
26	CCCOc1ccc2cc(-c3ccccn3)c(=O)oc2c1	5%	?	?	?
27	Cc1cc(C)c(NC(=O)CN(C)C(=O)c2ccc(OCc3ccccc3)cc2)c(C)c1	nt	nt	2.2%	-9%
28	CCOc1ccc(C(=O)NC2CCN(C(=O)N3CCCC3)CC2)cc1	-9%	1	3.4%	7%
29	COc1ccc(C)cc1NC(=O)c1cccc(C(=O)Nc2cc(C)ccc2OC)c1	-4%	nt	-1.3%	-2%
30	Cc1ccc(NC(=O)NCC2CC2(Cl)Cl)cc1 (stereo not given)	-53%	nt	-0.1%	-2%
31	COc1ccc(SCCc2ccncc2)cc1	-2%	2	6.9%	3%
32	COc1ccccc1NS(=O)(=O)c1cc(NC(=O)CN2C(=O)NC3(CCCC3)C2=O)ccc1C	nt	nt	0.6%	-18%
33	Fc1cccc(NC(=S)N2CCN(c3ccccn3)CC2)c1	0%	nt	-1.6%	-4%
34	O=C(O)c1ccc(NS(=O)(=O)c2ccc(Cl)c(C(=O)Nc3ccccc3[N+](=O)[O-])c2)cc1	-1%	nt	-2.7%	-3%
35	COc1cc(OC)cc(-c2nnc(SCC(=O)N3c4ccccc4Sc4ccccc43)o2)c1	nt	nt	-2.1%	-19%
36	O=C(c1ccncc1)N1CCN(S(=O)(=O)c2cccc(F)c2)CC1	-2%	nt	1.5%	7%
37	COc1ccccc1/C=C/C=N/NC(=O)Cc1cccs1	-58%	-6	4.7%	25%
38	CC1CCCN(c2cc3c(cc2[N+](=O)[O-])C(=O)N(c2ccccc2)C3=O)C1 (stereo not given)	-2%	0	1.8%	-9%
39	CC(C)OC(=O)C(CC(=O)O)N1CCOCC1 (stereo not given)	-4%	5	3.2%	-3%
40	Cc1ccc(C(=O)NCCn2cc(SCC(=O)Nc3nnc(C)s3)c3ccccc32)cc1	10%	1	-0.2%	-3%
41	COc1cccc(C(=O)OCC(=O)Nc2sc3c(c2C(N)=O)CCC3)c1O	nt	nt	?	-16%
42	NS(=O)(=O)c1ccc2nc(NC(=O)c3ccc4ncsc4c3)sc2c1	-18%	nt	2.6%	-13%
43	CCOC(=O)N1CCN(S(=O)(=O)c2ccc3[nH]c(=O)oc3c2)CC1	-1%	-1	5.0%	-2%
44	COc1ccccc1CN(C)CC(=O)Nc1cccc2ccccc12	0%	nt	3.3%	9%
45	COc1ccccc1CNC(=O)CN(C)S(=O)(=O)c1ccc2c(c1)c(=O)n(C)c(=O)n2C	0%	nt	1.4%	18%
46	CCn1cc(CN2CCC(n3nccc3NC(=O)CCCc3ccccc3)CC2)c(C)n1	0%	nt	-0.6%	-4%
47	CCn1c(=O)c2sccc2n(CC(=O)NC2CCCCC2)c1=O	6%	nt	-0.1%	5%
48	COc1cccc(NC(=O)C2COc3ccccc3O2)c1 (stereo not given)	-47%	nt	-0.5%	2%

Profiles, quoted from the list. Screens in order: miR-21 FLuc | GLA inh pH 4.5 | Rango-impB inh | Rango dissoc inh
`CCn1cc(CN2CCC(n3nccc3NC(=O)CCCc3ccccc3)CC2)c(C)n1` across the screens: 0% | nt | -0.6% | -4%
`COc1ccccc1/C=C/C=N/NC(=O)Cc1cccs1` across the screens: -58% | -6 | 4.7% | 25%

(next part)
#	canonical_smiles	miR-21 FLuc	GLA inh pH 4.5	Rango-impB inh	Rango dissoc inh
49	CCCC1=C(C(=O)OCC)C(c2c(C)nn(-c3ccccc3)c2Cl)C(C#N)=C(N)O1 (stereo not given)	-1%	-10	0.3%	-5%
50	CCOc1ccc(C2C3=C(CC(C)(C)CC3=O)N(CC(=O)O)C3=C2C(=O)CC(C)(C)C3)cc1OCC	0%	nt	?	?
51	Cc1ccc(Nc2nc(N)nc(CSc3ncccn3)n2)cc1	-59%	1	0.8%	11%
52	Cc1ccc(-c2[nH]c3ccccc3c2SCCN)cc1	1%	3	-0.2%	0%
53	O=C(COC(=O)c1ccc(S(=O)(=O)NCc2ccco2)cc1)Nc1ccc(Cl)cn1	3%	5	-1.7%	-5%
54	CCOC(=O)Cc1csc(NC(=O)c2cnc3scc(C)n3c2=O)n1	nt	nt	6.4%	1%
55	COc1ccc2cc(C(c3nnnn3C(C)(C)C)N3CCc4ccccc4C3)c(=O)[nH]c2c1 (stereo not given)	5%	-3	nt	nt
56	CCCCn1c(SCC(=O)N2c3ccccc3Sc3ccccc32)nc2c1c(=O)n(C)c(=O)n2C	-4%	7	3.7%	-11%
57	C(=N\Nc1nc(-c2ccccc2)cs1)/c1ccncc1	-56%	0	4.6%	3%
58	Cc1[nH]c(=O)[nH]c(=O)c1S(=O)(=O)N1CCCC(C(=O)NCCc2ccccc2)C1 (stereo not given)	-7%	13	0.8%	2%
59	C[C@@H](C(=O)Nc1ccc2ccccc2c1)[C@H]1C[C@]1(C)[C@H](NS(=O)(=O)c1ccccc1)c1ccccc1	9%	2&-12	-7.7%	10%
60	Cc1ccc(NC(=O)COC(=O)CCC(=O)c2cccs2)cc1S(=O)(=O)N1CCOCC1	2%	6	-6.6%	-15%
61	CCOc1ccc(C(=O)NCC(=O)OCc2nnc(-c3ccccc3)o2)cc1OCC	nt	nt	0.1%	-17%
62	O=S(=O)([N-]c1nc2ccccc2nc1-n1cc[n+](Cc2ccccc2)c1)c1ccc(Cl)cc1	-1%	3	?	?
63	C=CCn1c(C)cc(C(=O)CSc2nnc(-c3cccc(S(=O)(=O)N(CC)CC)c3)o2)c1C	21%	-18	0.4%	-1%
64	COc1cc([C@@H]2CC=C(C(=O)O)[C@H](c3ccc(Cl)cc3)N2S(=O)(=O)c2ccc(C)cc2)cc(OC)c1OC	nt	nt	-1.7%	4%
65	O=C1C2C(C(=O)N1CCc1ccccc1)C1C=CC2C12CC2 (stereo not given)	-15%	6	-0.9%	-3%
66	CCOC(=O)C(Cc1cc(N)c(Oc2ccc(OC)cc2)c(N)c1)NC(C)=O (stereo not given)	nt	nt	-0.5%	?
67	COc1ccc(-c2[nH]c(-c3cccc(OC)c3)nc2SCC(=O)NCc2ccco2)cc1	22%	-7	0.7%	15%
68	Cc1ccc(C(=O)N/C(=C/c2ccco2)C(=O)NCC2CCCO2)cc1 (stereo not given)	-6%	3	1.3%	-12%
69	CC(C)(C)NC(=O)CN(C(=O)CCC(=O)Nc1nccs1)c1cccc(C(F)(F)F)c1	-2%	nt	7.0%	23%
70	O=C(Nc1ccc(F)c(Cl)c1)C1CCCN(c2cnccn2)C1 (stereo not given)	-2%&6%	nt	-4.9%	-1%
71	O=C(CC(C(=O)O)P(=O)(c1ccccc1)c1ccccc1)c1ccc(Br)cc1 (stereo not given)	1%	9	-0.2%	0%
72	CCOC(=O)c1c(C)n(C)c2ccc(OC)c(NC(=O)CN3CCN(C4CCCCC4)CC3)c12	-6%	-6	1.6%	29%
73	Cc1ccc(NC(=O)CCNC(=O)c2ccccc2Cl)cc1S(=O)(=O)N1CCCCCC1	nt	nt	9.0%	0%
74	Cc1ccc(S(=O)(=O)N(C)C)cc1NC(=O)Cn1c(CN2CCOCC2)nc2ccccc2c1=O	-3%	7	-2.6%	-6%
75	Cc1ccccc1N1C(=O)C2C3CCC(O3)C2C1=O (stereo not given)	1%	nt	-0.6%	2%
76	Cc1nc(Cl)cc(N/N=C/c2ccc(O)cc2O)n1	-12%	nt	?	-6%
77	COC(=O)c1ccc(CNC(=O)COC(=O)c2cc(Cl)ccc2O)cc1	nt	nt	-6.8%	-18%
78	CC(CNC(=O)Cn1ccc2cc(S(=O)(=O)N3CCCC3)ccc21)c1ccccc1 (stereo not given)	5%	nt	4.4%	0%
79	COc1cc(C2CC(=O)c3c(ccc4ccccc34)N2)ccc1O (stereo not given)	-10%	-7	1.7%	-9%
80	COc1ccc(/C=C2/C(=N)N3N=C(CC(=O)N4CCCC4)SC3=NC2=O)cc1OC	-1%	nt	-2.6%	0%
81	O=C(NCc1ccccn1)c1cc(-c2ccc(Cl)cc2)nc2ccccc12	14%	-2	-2.1%	5%
82	O=c1cc(N2CCc3ccccc3C2)[nH]c(=O)n1Cc1ccc(F)cc1	-2%	-6	-5.8%	1%
83	O=C(Nc1ccccc1O)C(c1ccccc1)c1ccccc1	27%	nt	?	?
